MLL AF4-AF9 inh: inhibitors of AF4 peptide binding to AF9, primary screen, biochemical, AlphaScreen, biotin-AF4 peptide, FLAG-AF9, single point; Protein AF-9 (Homo sapiens), P42568; inhibition, % at 10 µM; 350,000 compounds, 0.47% hits; AID 651704, 2012;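 active means every replicate reaching a set inhibition limit, whatever the replicate mean, cut at about 25% in these data; inconclusive means mean inhibition reaches that limit but some replicates miss it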;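 further: 0% = plate neutral control median and 100% = total signal loss; the record names both 10 and 1 µM as test concentration; the first replicate is given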
Target sequence (P42568 whole entry, looked up): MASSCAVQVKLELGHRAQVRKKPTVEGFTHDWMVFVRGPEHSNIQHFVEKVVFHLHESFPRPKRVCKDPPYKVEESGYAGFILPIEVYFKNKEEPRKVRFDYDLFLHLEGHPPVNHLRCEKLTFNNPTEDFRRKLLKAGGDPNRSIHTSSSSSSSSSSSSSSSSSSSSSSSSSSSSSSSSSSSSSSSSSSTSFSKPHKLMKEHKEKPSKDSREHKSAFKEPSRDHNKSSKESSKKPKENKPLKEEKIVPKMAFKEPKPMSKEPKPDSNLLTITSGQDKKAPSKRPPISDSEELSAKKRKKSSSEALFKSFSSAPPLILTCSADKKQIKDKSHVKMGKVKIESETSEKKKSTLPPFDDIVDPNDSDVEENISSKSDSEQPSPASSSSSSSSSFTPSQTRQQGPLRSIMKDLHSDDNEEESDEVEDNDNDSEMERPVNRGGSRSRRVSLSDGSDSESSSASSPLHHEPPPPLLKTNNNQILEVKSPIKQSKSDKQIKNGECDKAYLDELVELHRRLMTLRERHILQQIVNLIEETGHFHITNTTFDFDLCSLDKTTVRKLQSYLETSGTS
T cruzi repl: inhibitors of intracellular T. cruzi growth, primary screen, luminescence, NIH3T3 host cells | T. cruzi beta-gal in NIH3T3, 90 h | inhibition, % (no concentration beside the values) | 300,000 compounds, 1.4% hits | AID 1885, 2009;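 active means mean inhibition across valid replicates above about 55%, limit read from the data; inconclusive means mean below that limit but half or more replicates reach it; inactive means mean below it, under half of replicates reach it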;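 further: signal also drops with host cell toxicity which is not excluded here; 0% = plate median of DMSO wells and 100% = zero luminescence signal; higher percent means less beta-gal luminescence so fewer parasites; stock transfer was 50 nL into about 50 µL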
Calb FLC: C. albicans growth inhibition with fluconazole, primary screen, CaCi-2 strain, Alamar Blue fluorescence; C. albicans CaCi-2 (fluconazole-resistant clinical isolate) + fluconazole, 48 h; growth inhibition, % (test concentration not listed); 300,000 compounds, 0.57% hits;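 active means most replicates above 75%; inconclusive means exactly half above 75%; inactive means most below 75%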;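 further: all wells also contain fluconazole at 8 µg/ml as a sub-toxic cotreatment; 0% = median of DMSO wells and 100% = median of geldanamycin control wells; wells of about 8 µL received 7.5 nL stock; the first replicate is given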
Vif A3G: inhibitors of Vif binding to APOBEC3G peptide, primary screen, biochemical, TR-FRET, GST-Vif 1-94, biotin-A3G peptide, dose response retest (AID 1117319) | TR-FRET GST-Vif / biotin-A3G peptide binding; higher % means a stronger effect; test concentration not given here; strong numbers were not always called active | inhibition, %, or IC50 in µM where a hit was titrated | 260,000 compounds, 0.57% hits;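 active means above the screen mean plus three standard deviations and confirmed in dose response; inconclusive means results disagree or hit not tested in dose response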;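 further: Vif residues 1-94 fused to GST binding biotinylated APOBEC3G peptide 110-148; 0% = full assay without inhibitor and 100% = GST in place of GST-Vif; retest series ran down from 100 µM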
RanGTP-Impb inh: inhibitors of RanGTP-importin-beta interaction, primary screen, biochemical, FRET, CFP-Ran, YFP-importin-beta, homogeneous; Ran GTPase (GTP-bound) - importin-beta complex; cell-free CFP-Ran/YFP-importin-beta FRET ratio; 300,000 compounds, 1.1% hits; inhibition, % (concentration not given with the values);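 active means most replicates above 15%; inconclusive means exactly half above 15%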;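 further: 0% = DMSO wells and 100% = Ran loaded with GDP instead of GTP; wells of about 40 µL received 100 nL stock; the first replicate is given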
Beta apoptosis: inhibitors of cytokine-induced beta cell apoptosis, primary screen, luminescence; INS-1E cytokine-induced death, ATP luminescence, 48 h; percent of positive-control rescue, neutral wells zero; protection from apoptosis, % (test concentration not listed); 300,000 compounds, 0.8% hits; AID 435005, 2010;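 active means all replicates at 75% or more, or half of them and the mean; inconclusive means half reach 75% but not the mean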;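 further: 0% = cytokine-treated negative control wells and 100% = positive control rescue; higher means more ATP so stronger rescue from cytokine killing; wells of about 40 µL received 100 nL stock; the first replicate is given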
Ecoli rRNA inh: reduced GFP signal of wild-type E. coli, primary screen, bacterial rRNA inhibitor project, GFP/RFP fluorescence, OD600, single point; E. coli WT GFP vs humanized-ribosome RFP mutants, 24 h; stronger effect = lower value; DMSO median 0, no signal -100; GFP signal change (wild-type ribosome), % (test concentration not listed); 350,000 compounds, 1.6% hits; AID 720706, 2013;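 active means significant combined selectivity score with lowered wild-type GFP, culture density cut under 30%, mutant RFP and density less affected; inactive means any of these conditions unmet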; further: one replicate is shown; some compounds called inactive have numbers as strong as hits
Bfl-1 A1 inh: caspase 3/7 activation in MEF A1-2A-BIM cells, primary screen, A1 inhibitor project, cell-based, luminescence, HTS; 330,000 compounds, 0.066% hits; Caspase-Glo 3/7 luminescence, 3 h; percent of clofoctol response, vehicle zero; caspase activation, % (test concentration not listed);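 active means over half of replicate activation scores above 10%, or exactly half above 10 with the replicate mean above 10; inconclusive means replicate mean below 10 yet half the replicates above 10; inactive means over half of replicates below 10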;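 further: wells of about 30 µL received 50 nL stock; many hits fall short of the cut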
Ecoli rRNA inh OD600: further read-out of Ecoli rRNA inh, marked with its call; OD600 change, %; measured here: OD600 growth;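 optical density of the mix in the first replicate; 0 = DMSO median and -100 = no signal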
Ecoli rRNA inh RFP: recorded beside Ecoli rRNA inh, whose call it bears; RFP signal change, %; measured here: RFP humanized mutant strains;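 first replicate; 0 = DMSO median and -100 = no signal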
* = called active by the depositor; ? = inconclusive; nt = not tested or not shown; & = joins results of further samples.

Every second line gives: MLL AF4-AF9 inh	T cruzi repl	Calb FLC	Vif A3G	RanGTP-Impb inh	Beta apoptosis	Ecoli rRNA inh	Ecoli rRNA inh OD600	Ecoli rRNA inh RFP	Bfl-1 A1 inh
1) Cc1ccc(C)c(NC(=O)CCN2CCc3ccccc3C2)c1
 : 1.0	19	-12	nt	1.7	-1	-1	4	-0.7	0.1
2) CCOc1ccc(C(=O)N(Cc2ccc(OC)cc2)Cc2cc3cc(OC)ccc3[nH]c2=O)cc1
 : nt	13	-2	-12%	4.2	2	nt	nt	nt	0.4
3) O=C(NCC(c1cccs1)N1CCOCC1)c1cc([N+](=O)[O-])ccc1Cl (centres undefined)
 : nt	-2	-5	nt	?	0	nt	nt	nt	-0.3
4) O=C(NCCN1CCOCC1)c1cccc(S(=O)(=O)Nc2ccc(F)cc2)c1
 : 0.2	nt	nt	-1%	nt	2	6	7	-1.1	0.9
5) COc1ccc(S(=O)(=O)NCC2CCC(C(=O)NCCC(C)C)CC2)cc1 (centres undefined)
 : nt	-7	-2	-2%	0.6	0	nt	nt	nt	0.6
6) Cc1cccc(N(C)S(=O)(=O)c2ccc(-c3cc(C)no3)s2)c1
 : 0.7	14	23	nt	-1.2	7	-31	-39	-7.5	0.0
7) CCC(C)N(C(=O)COC(=O)CCc1c[nH]c2ccccc12)C1CCS(=O)(=O)C1 (centres undefined)
 : nt	-17	3	2%	2.8	nt	nt	nt	nt	-2.1
8) CCc1nnc(NC(=O)CSc2ccc(-c3cccs3)nn2)s1
 : -3.8	-18	17	-15%	1.5	-4	22	-10	-1.8	-0.7
9) CCOC(=O)c1cnc2c(C#N)cnn2c1N
 : -2.4	-16	-4	-5%	-0.8	-2	21	11	4.7	0.0
10) COCCNC(=S)NNC(=O)CSCc1ccc(Cl)cc1Cl
 : -1.8	12	-19	-2%	2.1	-10	-21	-31	2.1	0.3
11) CCOc1ccc(/C=N/NC(=O)c2cc(-c3cccn3C)n[nH]2)cc1
 : 3.5	-15	51	-7%	?	28	-26*	-15*	-4.9*	0.1
12) CCC(=O)C1=C(O)C(c2cccc(Oc3ccccc3)c2)CCC1=O (centres undefined)
 : -0.8	1	15	nt	1.5	-1	6	-6	-2.6	0.5
13) NS(=O)(=O)c1ccc(CCNC(=O)/C=C/c2cccc([N+](=O)[O-])c2)cc1
 : -0.3	-9	-1	-1%	-1.4	-6	-3	3	0.5	0.5
14) O=C(NCCCO)C(=O)Nc1cc2c3c(c1)CCN3C(=O)CC2
 : 3.0	-22	3	nt	5.2	1	2	-3	-2.8	0.6
15) COc1cccc(CNC(=O)C(=O)NCC2CCCO2)c1 (centres undefined)
 : nt	4	0	-11%	-1.4	-2	nt	nt	nt	-0.1
16) O=C(CCC1CCCC1)NCCS(=O)(=O)N1CCN(c2ccccc2F)CC1
 : 0.8	2	-12	1%	-0.9	nt	-2	7	0.2	-0.4
17) CCSc1nc(C)c(C)c(=O)[nH]1
 : -2.6	-21	10	-5%	-3.8	nt	22	26	-0.9	nt
18) COCCCN(C(=O)C1CCCCC1)c1c(N)n(Cc2ccccc2)c(=O)[nH]c1=O
 : -1.7	nt	nt	nt	nt	-2	8	11	-0.9	1.1
19) COCc1cc(=O)[nH]c(SCCS(=O)(=O)c2ccc(C)cc2)n1
 : nt	5	8	nt	3.5	1	-2	-3	-2.0	0.6
20) O=C1N2CCCc3cccc(c32)C12Nc1ccccc1S2 (centres undefined)
 : nt	17	-29	6%	1.6	nt	nt	nt	nt	nt

Remaining list, next part:
Every second line gives: MLL AF4-AF9 inh	T cruzi repl	Calb FLC	Vif A3G	RanGTP-Impb inh	Beta apoptosis	Ecoli rRNA inh	Ecoli rRNA inh OD600	Ecoli rRNA inh RFP	Bfl-1 A1 inh
21) COc1ccc(OC)c(NC(=O)CSc2nc(C)cs2)c1
 : nt	5	0	-2%	6.5	-14	nt	nt	nt	1.7
22) CC1CN(C(=O)CCC(=O)NCc2ccccn2)c2ccccc2O1 (centres undefined)
 : -0.1	-12	0	nt	?	-3	12	7	-1.1	1.2
23) COC(=O)C1=C(CS(=O)(=O)c2ccc(OC)cc2)NC(=O)NC1c1ccccc1 (centres undefined)
 : 0.9	-13	?	nt	?	-3	4	-8	4.5	0.7
24) COc1cc(C(=O)Nc2ccc(C(N)=O)cc2)c([N+](=O)[O-])cc1OC
 : -0.1	-18	-7	1%	-1.2	-8	18	20	0.8	-0.4
25) Cc1cc(NC(=O)c2ccc(Br)cc2)nc(C)n1
 : 0.2	-8	12	nt	1.2	-5	-30	-44	-8.2	-4.4
26) COc1ccc(S(=O)(=O)C(C#N)c2nc3ccccc3nc2N2CCCC(C)C2)cc1 (centres undefined)
 : nt	-5	-5	17%&5%	13	2	nt	nt	nt	0.0
27) CCNS(=O)(=O)c1ccc(NC(=O)c2ccc(Cn3cc([N+](=O)[O-])cn3)o2)cc1
 : 1.2	6	8	8%	-1.0	4	-4	3	3.0	0.9
28) CC(C(=O)Nc1ccccc1)N(C)Cc1cccs1 (centres undefined)
 : 1.6	4	-3	nt	0.8	1	-1	-6	-1.6	0.5
29) O=C(Nc1ccccc1-c1ccccc1)c1ccco1
 : nt	-1	-5	2%	-0.9	-1	nt	nt	nt	0.6
30) COc1cc(CN2CCCN(C)CC2)cc([N+](=O)[O-])c1O
 : 6.7	9	5	nt	2.9	-9	16	5	1.2	1.7
31) CCCn1nnc(NC(=S)NC(=O)C(C)(C)C)n1
 : -3.2	8	0	-3%	-2.4	-11	9	20	3.1	0.8
32) CCCCn1c(SCC(=O)OCC)nnc1-c1ccoc1C
 : nt	8	-2	18%	-0.1	-6	nt	nt	nt	0.1
33) COC(=O)c1ccc(OC(C)C(=O)c2ccc(C)cc2)cc1 (centres undefined)
 : -9.0	4	-6	0%	-8.2	-10	-22	-25	4.5	-0.6
34) COc1ccc(Nc2nc(-c3sc(N)nc3C)cs2)cc1
 : nt	-11	?	16%	-3.9	0	nt	nt	nt	-1.6
35) Cc1ccc(OCc2cc(C(=O)N(C)CCn3ccnc3C)no2)cc1C
 : 2.7	-15	8	nt	1.1	-6	2	-4	-1.6	0.3
36) CC(C)COc1cccc(C(=O)N2CCN(C(=O)c3ccco3)CC2)c1
 : 2.4	nt	nt	-8%	nt	-5	3	8	-1.6	0.2
37) CN1CCC(N(C)C(=O)CCc2nc3ccccc3c(=O)[nH]2)CC1
 : nt	-3	28	-1%	7.4	-6	nt	nt	nt	-0.4
38) COCCCn1c(SCC(=O)N2CCOCC2)nc2ccccc2c1=O
 : -0.1	2	-2	nt	-0.6	1	0	-1	-1.0	-0.2
39) CCOC(=O)c1sc(=S)n(C)c1NC(=O)c1cccc(Br)c1
 : -4.3	-17	20	1%	-3.6	18	-49*	-13*	-15*	1.0
40) CCN(CC)c1ccc(NC(=O)COc2ccc(C)cc2)cc1
 : nt	6	-8	nt	-4.4	-2	nt	nt	nt	0.3

More entries:
Every second line gives: MLL AF4-AF9 inh	T cruzi repl	Calb FLC	Vif A3G	RanGTP-Impb inh	Beta apoptosis	Ecoli rRNA inh	Ecoli rRNA inh OD600	Ecoli rRNA inh RFP	Bfl-1 A1 inh
41) CCOC(=O)c1ccc(N2C(=O)C3ON(c4ccccc4)C(c4ccco4)C3C2=O)cc1 (centres undefined)
 : nt	-6	12	4%	8.4	nt	nt	nt	nt	0.9
42) CCCCN(C)CCNC(=O)C1CCN(S(=O)(=O)c2cccc3nsnc23)CC1
 : -0.6	25	52	nt	2.5	0	15	10	3.4	-0.6
43) O=C(CCc1ccccc1)NCc1cccnc1
 : nt	-28	-5	16%	-0.3	-5	nt	nt	nt	-0.3
44) COc1ccccc1Cn1c(-c2ccco2)nc2nc3ccccc3nc21
 : nt	3	4	nt	3.4	3	nt	nt	nt	-0.3
45) Cc1onc(-c2ccccc2)c1C(=O)NCc1ccc(F)cc1
 : -0.5	-12	-7	nt	0.9	nt	9	-2	2.1	0.9
46) NC(=O)c1ccccc1
 : -21	-11	nt	10%	0.7	3	8	13	-0.1	-0.2
47) COC(=O)c1cc(NC(=O)C2CC(=O)NC(=NCc3ccc(OC)cc3)S2)cc(C(=O)OC)c1 (centres undefined)
 : -4.0	-3	28	?	-2.5	-3	8	7	-1.1	0.9
48) COc1cc(S(=O)(=O)NCC2OCCc3ccccc32)ccc1-n1cnnn1 (centres undefined)
 : nt	-6	-2	3%	7.1	10	nt	nt	nt	-0.3
49) CCC1Nc2ncnc(N3CCCCC3)c2N(Cc2ccc(OC)cc2)C1=O (centres undefined)
 : -0.1&3.2	nt	nt	nt	nt	0	-11&-11	-12&-2	-1.1&2.9	1.0
50) CN(C)S(=O)(=O)c1cccc(NC(=O)c2ccc(S(=O)(=O)N3CCCCC3)cc2)c1
 : 1.2	-2	nt	1%	-6.5	-2	-7	-18	2.2	1.5
51) CCOC(=O)Nc1cccc(OCC(=O)Nc2ccc3c(c2)CCC3)c1
 : -4.0	nt	nt	nt	nt	-3	0	8	0.0	-0.7
52) COc1cc2c(cc1OC)C(=O)CCS2
 : nt	4	-4	26%	1.6	-1	nt	nt	nt	0.6
53) O=C(Nc1cccc(Cl)c1)C1=CC=CN2CCS(=O)(=O)N=C12
 : -2.7	nt	nt	-1%	nt	-3	0	12	-1.4	-0.3
54) Cc1cc(OC(=O)c2ccc(S(=O)(=O)N3CCCCC3)cc2)c([N+](=O)[O-])c(=O)[nH]1
 : -1.0	-19	11	nt	-4.4	-1	4	0	-5.7	-0.5
55) CN(C(=O)CSc1ccc2c(c1)OCCO2)c1ccccc1
 : -11	nt	nt	nt	nt	0	-7	-16	-3.8	-0.2
56) COc1cc(NC(=O)COc2ccc(Cl)cc2)ccc1NC(=O)C(C)C
 : -0.4	23	0	1%	3.6	-2	4	4	-5.0	0.7
57) c1cc[n+](CCC[n+]2ccccc2)cc1
 : -2.4	-19	13	0%	-0.7	-4	10	13	4.5	1.4

Source: PubChem BioAssay (several laboratories)

An excerpt; count on the stated rates, not on these rows.
